Compound activity deposited in PubChem by several laboratories.
RanGTP-Imp inh: inhibitors of RanGTP-importin-beta interaction, primary screen, biochemical, FRET, CFP-Ran, YFP-importin-beta, homogeneous | cell-free CFP-Ran/YFP-importin-beta FRET ratio | inhibition, % (concentration not given with the values) | 1.1% of 300,000 active;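 active means most replicates above 15%; inconclusive means exactly half above 15%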;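 further: 0% = DMSO wells and 100% = Ran loaded with GDP instead of GTP; wells of about 40 µL received 100 nL stock; the first replicate is given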
LANA-H2B inh: blocks KSHV LANA binding to histone H2A/H2B | Q9QR71 | cell-free LANA-H2A/H2B peptide, fluorescence polarization | inhibition, % (concentration not given with the values) | 0.6% of 320,000 active; in the data active means inhibition mostly above about 10%, no sharp cut-off; inactive means mostly below about 6.7%;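 further: stock transfer was 7.5 nL into about 10 µL; 0% = median of vehicle wells and 100% = median of positive control wells; one replicate is shown; the record names a cut of 25% in any replicate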
Target sequence (Q9QR71 whole entry, looked up): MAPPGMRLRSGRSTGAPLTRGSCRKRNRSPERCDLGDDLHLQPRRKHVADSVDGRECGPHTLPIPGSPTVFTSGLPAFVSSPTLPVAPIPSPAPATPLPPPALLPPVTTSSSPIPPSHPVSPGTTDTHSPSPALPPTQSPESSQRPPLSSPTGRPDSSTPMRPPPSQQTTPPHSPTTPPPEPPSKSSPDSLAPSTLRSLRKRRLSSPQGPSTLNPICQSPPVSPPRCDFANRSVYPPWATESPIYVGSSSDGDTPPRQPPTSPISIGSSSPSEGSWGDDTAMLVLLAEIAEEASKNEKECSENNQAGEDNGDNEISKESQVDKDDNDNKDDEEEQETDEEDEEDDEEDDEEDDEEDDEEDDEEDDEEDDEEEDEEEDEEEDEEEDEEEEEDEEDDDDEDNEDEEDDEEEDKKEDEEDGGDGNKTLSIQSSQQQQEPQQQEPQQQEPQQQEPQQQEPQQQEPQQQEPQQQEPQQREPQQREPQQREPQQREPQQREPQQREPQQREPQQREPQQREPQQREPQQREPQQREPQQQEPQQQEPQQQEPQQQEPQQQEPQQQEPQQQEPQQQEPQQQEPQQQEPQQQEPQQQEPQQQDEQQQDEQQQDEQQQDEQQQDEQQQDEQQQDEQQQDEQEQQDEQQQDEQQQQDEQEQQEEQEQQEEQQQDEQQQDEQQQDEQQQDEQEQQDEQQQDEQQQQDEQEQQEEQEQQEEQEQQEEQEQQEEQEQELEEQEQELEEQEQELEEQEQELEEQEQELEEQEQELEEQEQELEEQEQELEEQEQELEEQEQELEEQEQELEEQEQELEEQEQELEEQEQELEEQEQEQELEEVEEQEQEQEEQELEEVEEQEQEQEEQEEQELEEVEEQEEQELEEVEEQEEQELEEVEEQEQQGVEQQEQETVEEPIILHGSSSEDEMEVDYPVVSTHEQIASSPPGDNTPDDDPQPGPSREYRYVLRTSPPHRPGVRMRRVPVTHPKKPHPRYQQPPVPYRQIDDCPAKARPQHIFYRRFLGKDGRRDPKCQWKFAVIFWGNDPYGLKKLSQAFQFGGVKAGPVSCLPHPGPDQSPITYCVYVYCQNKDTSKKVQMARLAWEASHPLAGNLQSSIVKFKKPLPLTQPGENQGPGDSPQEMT
Vif TR-FRET: HIV-1 Vif–A3G interaction blockers – biochemical, TR-FRET, GST-Vif 1-94, biotin-A3G peptide, dose response retest, primary screen (AID 1117319); 0.57% of 260,000 active; TR-FRET GST-Vif / biotin-A3G peptide binding; higher % means a stronger effect; test concentration not given here; strong numbers were not always called active; inhibition, %, or IC50 in µM where a hit was titrated;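 active means above the screen mean plus three standard deviations and confirmed in dose response; inconclusive means results disagree or hit not tested in dose response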;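 further: Vif residues 1-94 fused to GST binding biotinylated APOBEC3G peptide 110-148; 0% = full assay without inhibitor and 100% = GST in place of GST-Vif; retest series ran down from 100 µM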
ALR inh: blocks human ALR sulfhydryl oxidase activity; P55789; inhibition, % (test concentration not listed); 3.8% of 290,000 active; AID 485317; purified ALR, DTT oxidation, H2O2 HRP-luminol luminescence;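 active means mean and each replicate at 75% or more; inconclusive means only one of the two met; inactive means neither met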;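 further: stock transfer was 7.5 nL into about 7.5 µL; 0% = neutral wells and 100% = wells with inactivated enzyme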
HNF4A DNA FP: change in binding of human HNF4 alpha to DNA | P41235 | HNF4a-FITC DNA binding, fluorescence polarization, 1 h | activity change, % at 10 µM | 0.3% of 360,000 active | AID 1224865; in the data active means activity change above about 30%, passing the limit was not always enough;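 further: controls were the assay level and a saturating level of protein; the project sought stronger binding though the title names inhibitors; some compounds called inactive have numbers as strong as hits; positive values seem to mean higher polarization but the record does not say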
B2AR ag: human beta-2 adrenergic receptor agonism by FAP. P07550. Am2.2-beta2AR cells, FAP receptor internalization, flow cytometry; reference of the scale not given here. response, % (test concentration not listed). 0.43% of 340,000 active. AID 504454;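 active means response above a set limit, near 3 SD of response in nonfluorescent compounds, cut at about 42% in these data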;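 further: stock transfer was 100 nL into about 11 µL; a reference agonist was the positive control; negative values mostly stem from fluorescent compounds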
Calb FLC: C. albicans growth modulation with fluconazole; 0.57% of 300,000 active; growth inhibition, % (test concentration not listed); C. albicans CaCi-2 (fluconazole-resistant clinical isolate) + fluconazole, Alamar Blue growth, 48 h; AID 1979;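 active means most replicates above 75%; inconclusive means exactly half above 75%; inactive means most below 75%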;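 further: all wells also contain fluconazole at 8 µg/ml as a sub-toxic cotreatment; 0% = median of DMSO wells and 100% = median of geldanamycin control wells; wells of about 8 µL received 7.5 nL stock; the first replicate is given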
Starred values were filed as active, the others as inactive; ? = inconclusive; . = no result given.

SMILES | RanGTP-Imp inh | LANA-H2B inh | Vif TR-FRET | ALR inh | HNF4A DNA FP | B2AR ag | Calb FLC
COc1ccccc1NC(=O)N(C1CCCC1)C1CCN(C(C)=O)CC1 | -0.9 | -1.1 | 10% | . | 5.1 | -5 | -2
Cc1cccc2cc(CN(Cc3ccc(F)cc3)C(=O)C(F)(F)F)c3nnnn3c12 | -2.3 | -0.7 | -8% | -7 | 3.7 | -1 | -9
Cc1nc(-c2ccccc2)cn(O)c1=O | -2.9 | . | 26% | . | -6.6 | 2 | 11
COCCCNc1nc(-c2ccncc2)nc2ccccc12 | 4.0 | 3.6 | -3% | -5 | -0.1 | -2 | -5
COc1ccc(CCNC(=O)C2CC3Cn4c(nc5cc(C)c(C)cc54)C3N2C)cc1 (centres undefined) | 0.2 | 6.5 | -11% | . | 2.6 | -4 | -4
Cc1ccc(NC(=O)C(C)Sc2nnc(C3CC3)n2C2CC2)cc1S(=O)(=O)N1CCOCC1 (centres undefined) | . | -2.0 | -5% | 96* | 0.5 | 5 | .
Cn1c(N)c(C(=O)COC(=O)C(Cc2ccccc2)NC(=O)c2ccccc2)c(=O)n(C)c1=O (centres undefined) | ? | 0.9 | . | 2 | -3.3 | 8 | 34
COC(=O)/C(=C\c1c[nH]c2ccccc12)NC(C)=O | 11 | 3.1 | -1% | 35 | -1.0 | 8 | 2
Cc1c(C(=O)OCC(=O)c2c(N)n(CC(C)C)c(=O)n(C)c2=O)oc2ccccc12 | ? | 2.0 | 28% | 1 | 0.5 | 6 | 2
CCCOC(=O)c1ccc(NC(=O)c2nc3nc(C)cc(C)n3n2)cc1 | -1.4 | -1.1 | -9% | -5 | 0.7 | -18 | 6
CC1(C)CC(C#N)(N2CCOCC2)CCO1 (centres undefined) | 1.5 | -0.8 | 22% | -1 | -2.6 | -1 | 17
CC(C)(C)c1ccc(/C=C/C(=O)N2CCc3ccccc3C2)cc1 | -0.1 | -2.1 | 7% | 8 | -0.9 | 5 | -1
CC1(C)NC(=O)N(CNc2cc(Cl)ccc2Cl)C1=O | 0.1 | 4.8 | 20% | 0 | 6.2 | 0 | -4
Cc1c(O[C@@H]2O[C@H](CO)[C@@H](O)[C@H](O)[C@H]2O)ccc2c1oc(=O)c1ccccc12 | -4.6 | 4.9 | 0% | -4 | -3.0 | -2 | 5
COc1ccc(C(=O)/C=C/Nc2ccc(C)cn2)cc1OC | 8.5 | 2.9 | -3% | 7 | 4.0 | 11 | -2
COc1ccc(NC(=O)CCCSc2ccccc2)cc1 | 4.0 | -1.8 | 47µM* | -2 | -0.5 | -2 | -5
O=C(COC(=O)C1CC(=O)N(C2CCCCC2)C1)c1ccc(F)cc1 (centres undefined) | -0.5 | 1.6 | -7% | . | 1.3 | 9 | -2
N#CCCN1CCN(C(=S)c2ccc(-c3cccc(Cl)c3)o2)CC1 | 0.1 | -3.4 | 2% | -2 | -1.5 | -9 | -5
Cn1c(Sc2ccc(Cl)cc2)c(C=O)c2ccccc21 | -1.1 | 13 | -7% | -5 | 0.5 | 7 | -1
CC(=O)NNS(=O)(=O)c1ccc(-c2cc(C(F)(F)F)n(C)n2)s1 | -0.8 | 16 | 0% | . | -1.2 | -3 | -1
CCN1C[C@@H]2[C@@H]3C(=O)N(C)C(=O)[C@@H]3[C@](CC)(C(=O)OC)N2C1=NCc1ccccc1 | . | . | 0% | . | 1.7 | 1 | .
Cc1cc(NS(=O)(=O)c2ccc(NC(=O)CCCOc3cccc(C)c3C)cc2)no1 | 1.2 | -2.0 | . | 3 | 2.8 | 2 | -4
CC(C)NC(=O)Nc1ccc2c(c1)C(=O)N([C@H](C)CO)C[C@H](C)[C@@H](CN(C)S(=O)(=O)c1ccccc1)O2 | . | -0.4 | . | 0 | -2.0 | 1 | .
O=c1[nH]c2cc3c(cc2cc1CN(CCc1ccccc1)Cc1nnnn1CC1CCCO1)OCO3 (centres undefined) | -75 | -5.0 | 15% | -2 | -3.6 | -9 | -3
CCCCOCCCNc1ncnc2c1[nH]c1ccccc12 | 2.2 | -4.1 | 4% | 7 | -2.2 | -1 | -32
COc1ccc(CC(NC(C)=O)C(=O)NC2CCN(C(=O)C3CC3)CC2)cc1OC (centres undefined) | -2.9 | -5.3 | 31% | -11 | -6.7 | 4 | 8
CC1CC2(CCCC2)N(C(=O)c2ccccc2)Cc2ccccc21 (centres undefined) | 7.0 | -1.5 | -6% | -5 | -1.8 | 1 | -15
COc1ccc(CNC(=O)CSCc2cccc(Cl)c2)cc1 | -2.1 | 4.1 | 3% | ? | 1.3 | -3 | -4
O=C(c1ccc(Nc2cccc(C(F)(F)F)c2)nc1)N1CCCC1 | 0.8 | 1.8 | ? | 3 | -0.3 | 4 | -6
Cc1ccccc1OCC(=O)Nc1cccc(S(=O)(=O)NC2=NCCC2)c1 | . | -4.9 | -13% | 0 | -2.9 | 3 | .
Cc1ccc(-n2c(O)c(C=Nc3ccc(S(=O)(=O)Nc4ncccn4)cc3)c3ccccc3c2=O)cc1C | -1.5 | 0.9 | -2% | 31 | 1.8 | -13 | -6
O=C(Cn1nc(-c2ccccc2)ccc1=O)NCc1ccc2c(c1)OCO2 | -3.3 | 1.8 | -2% | -1 | 2.8 | -1 | -11
O=C(CO/N=C/c1c(Cl)cccc1Cl)NNC(=O)c1cccc(Cl)c1 | 0.7 | 1.3 | 3% | -3 | 2.5 | -8 | -5
Cn1c(NCc2ccc(Cl)cc2)nc2ccccc21 | -6.6 | 6.0 | -2% | 73 | 0.3 | -6 | -3
O=c1n(Cc2ccccc2F)c2ccccc2n1Cc1ccccc1F | 3.9 | -7.8 | -5% | 2 | -15 | 5 | 4
Oc1ccc(/C(Cc2ccc3ccccc3n2)=N\Nc2ccccc2)c(O)c1 | -2.6 | 3.3 | -13% | 98* | 9.6 | -52 | -16
O=C(CCS(=O)(=O)c1ccc2c(c1)NC(=O)CS2)NCc1cccs1 | 0.3 | 1.3 | 5% | -2 | 3.4 | -60 | -4
Cc1ccc(N2C(=O)NC(NS(=O)(=O)c3ccccc3)(C(F)(F)F)C2=O)cc1 (centres undefined) | 3.1 | 3.4 | . | . | 0.7 | 5 | -11
COc1ccccc1CCNC(=O)CNC(=O)c1ccc2ccccc2c1 | -2.7 | 1.4 | . | -4 | -0.6 | -3 | 1
O=C(O)CCC(=O)N1CCN(c2nc(-c3ccccc3)c3ccccc3n2)CC1 | 12 | 4.6 | 1% | -1 | 3.7 | -5 | -14

Reformatted with each value named: entries from further up.
O=c1[nH]c2cc3c(cc2cc1CN(CCc1ccccc1)Cc1nnnn1CC1CCCO1)OCO3 (centres undefined)
  RanGTP-Imp inh: -75
  LANA-H2B inh: -5.0
  Vif TR-FRET: 15%
  ALR inh: -2
  HNF4A DNA FP: -3.6
  B2AR ag: -9
  Calb FLC: -3

CCCCOCCCNc1ncnc2c1[nH]c1ccccc12
  RanGTP-Imp inh: 2.2
  LANA-H2B inh: -4.1
  Vif TR-FRET: 4%
  ALR inh: 7
  HNF4A DNA FP: -2.2
  B2AR ag: -1
  Calb FLC: -32

Further entries:
SMILES | RanGTP-Imp inh | LANA-H2B inh | Vif TR-FRET | ALR inh | HNF4A DNA FP | B2AR ag | Calb FLC
COCCNC(=O)C1CC(=O)N(C2CCCCC2)C1 (centres undefined) | 0.8 | 11 | -4% | 3 | -2.4 | -20 | 0
COc1cccc(/C=C/C(=O)Oc2ccc(C(=O)c3ccc(F)cc3)cc2)c1 | -5.9 | 0.9 | . | 9 | -0.7 | -9 | -1
CCN1C(=O)[C@H]2[C@@H](c3ccc(-c4ccc(F)cc4)c(OC)c3)N[C@@](C)(C(=O)OC)[C@H]2C1=O | -1.5 | 0.6 | . | 16 | 7.8 | 1 | 31
CN(C(=O)c1ccc(OC2CCN(C(=O)c3cccnc3)CC2)cc1)C1CCCCC1 | -2.5 | -0.4 | 20% | . | 1.9 | 8 | 26
CCOC(=O)C(Cc1ccccc1)C(=O)Nc1cccc(C)c1 (centres undefined) | 0.7 | 6.4 | . | . | -0.6 | 6 | -32
CCCSc1nc2c(cnn2-c2ccc(C)cc2)c(=O)[nH]1 | -0.2 | -0.3 | 64% | . | -0.8 | 4 | 3
C[C@@H]1CCC(=O)N(C[C@@H](C)CSc2ccc(Br)cc2)CC1 | . | 1.0 | . | -3 | -0.4 | 1 | .
COc1cccc(COc2nc3c(c(=O)n(C)c(=O)n3C)n2C)c1 | -3.4 | -5.6 | -4% | -2 | -4.0 | 4 | 0
CCOc1ccc(NC(=O)NC2CCCCCCC2)cc1 | . | 4.0 | . | -5 | 0.0 | 6 | 1
CC(=O)N1CCN(c2ccc(NC(=O)c3ccc(Cl)c(Cl)c3)cc2)CC1 | 3.5 | -1.7 | . | -9 | 1.5 | 7 | 2
CCN1CCCC1CNC(=O)c1cc2c(-c3ccc(Cl)cc3)nn(C)c2s1 (centres undefined) | 4.9 | -2.0 | 1% | 65 | 1.0 | 16 | 4
CCCCC(=O)OCC(=O)Nc1cccc(S(=O)(=O)NC2=NCCCCC2)c1 | 4.3 | 2.4 | . | -18 | -0.8 | 5 | -10
Cc1cccc(N2CCN(C(=O)Cn3c(=O)[nH]c4ccsc4c3=O)CC2C)c1 (centres undefined) | 3.7 | -0.5 | 1% | 58 | 4.7 | 3 | 5
COC(=O)c1sccc1NC(=O)COc1ccc(F)cc1Cl | 1.1 | -2.8 | . | 3 | 3.4 | 6 | -3
O=c1[nH]c2ccc(Br)cc2o1 | . | . | 3% | . | 3.8 | -3 | .
CCOc1ccc(C2C(C(=O)c3ccco3)=C(O)C(=O)N2CCN2CCOCC2)cc1 (centres undefined) | -2.9 | -4.0 | 4% | -1 | 1.0 | -7 | 4
CCOC(=O)c1sc2nc(C)n(CC(=O)NCC3CCCO3)c(=O)c2c1C (centres undefined) | 3.1 | -2.8 | 0% | -13 | 2.6 | -12 | -3
CN(C(=O)c1ccc(NC(=O)Cc2cccc(NC(=O)C3CCCN(C(=O)C4CCC4)C3)c2)cc1)C1CCCC1 (centres undefined) | . | -2.6 | . | 0 | 2.8 | -7 | .
C=CCn1c(=S)[nH]c2sccc2c1=O | -1.3 | -3.9 | . | 98* | -2.0 | -3 | -4
O=c1c2ccccc2nnn1COc1ccc(F)cc1Cl | 3.0 | -10 | 29% | -2 | -0.8 | 1 | -5
Cc1cc(C)c2oc(=O)cc(CN3CCOCC3)c2c1 | 2.1 | 2.3 | 24% | 1 | 0.1 | -1 | 0
COc1nnc(-c2ccc(N3CCCCC3)c(N)c2)c2ccccc12 | 3.5 | 2.1 | . | . | 5.4 | -6 | -16
O=C(CN1CCOCC1)OCCCC1CCCCC1 | 4.3 | -0.6 | -2% | -2 | 1.8 | -2 | -6
CC(Sc1nnc(-c2ccccc2)c(-c2ccccc2)n1)C(=O)N1CCc2ccccc21 (centres undefined) | ? | 0.8 | ? | -11 | 0.6 | -6 | 8
CCN1CCc2c(sc(NC(=O)C3CCCCC3)c2C(=O)OC)C1 | 42* | -0.8 | . | -8 | 0.1 | -12 | 3
COc1ccccc1-c1cc(-c2ccccc2)nc(SCC(=O)O)c1C#N | 1.8 | -0.6 | . | 14 | -0.7 | 9 | 25
COc1ccc(CCNC(=O)c2ccc(C)s2)cc1OC | 0.4 | 4.6 | 2% | 7 | 5.3 | 8 | 3
COc1ccc(CNC(=O)C(C)Sc2ccc(C)cc2)cc1 (centres undefined) | -0.6 | -1.3 | . | -8 | 3.6 | -3 | -9
CC(=O)N1CCN(C(=O)c2ccc(NS(=O)(=O)c3cc(C)ccc3C)cc2)CC1 | 3.2 | -3.8 | 7% | -1 | -0.1 | -8 | 3
O=C(NC(=S)Nc1ccc(NC(=O)c2cccs2)cc1)c1ccco1 | -3.1 | 3.3 | 7% | 1 | -0.6 | -18 | 2
